# Source: PubChem BioAssay
# Sa ugtP lethal: compounds lethal to S. aureus RN4220 ugtP deletion mutant | OD600 growth, 16 h; some inactives read as strong as hits | growth inhibition, % (test concentration not listed) | hit rate 0.54% among 330,000 | AID 1259309;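 active = z-score under -3 and OD600 up to 0.15 on both plates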;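 also: plate controls were untreated wells for no effect and antibiotic for full effect; wells of about 80 µL received 100 nL stock; the first replicate is given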
# Sa RN4220 lethal: S. aureus RN4220 growth inhibition; inhibition, % (concentration not given with the values); OD600, 16 h; hit rate 0.33% among 330,000;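 active = z-score of -3 or lower and OD600 up to 0.18 on both plates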;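 also: plate controls were untreated cells for no effect and reference antibiotic for full effect; stock transfer was 100 nL into about 80 µL; one replicate is shown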
# BJeLR viability: BJeLR cell viability loss; hit rate 0.17% among 300,000; inhibition, % (concentration not given with the values); BJeLR (HRASV12) viability, CellTiter-Glo ATP luminescence, 48 h; reference of the scale not given here; AID 1554;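 active = replicate mean above 50%; inconclusive = above 50% but judged a plate artefact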;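 also: 50 nL library stock added to about 25 µL; numbers are from one replicate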
# Bead autofluor: compound fluorescence in toxin protease inhibitor counterscreen; hit rate 3.1% among 360,000; fluorescence intensity (test concentration not listed); compound autofluorescence counterscreen, microsphere flow cytometry; hits give high values;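 active = at least 3 SD above the mean of all compounds, about 16000 in these data; inconclusive = too few beads counted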;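 also: 100 nL of 1 mM stock went into each well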
# PrP UTR inh: inhibition of PrP 5' UTR reporter expression; hit rate 0.35% among 340,000; AID 488862; cell-based PrP 5' UTR mRNA reporter, plate reader; inhibition, % (no concentration beside the values);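 active = every replicate at 50% or more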;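 also: 0 = median of the neutral control wells; tested in H4 reporter cells; numbers are from one replicate; inactives centre near -14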
# Mtb hypoxia inh: reduces hypoxia-regulated biosensor signal in M. tuberculosis; M. tuberculosis hypoxia-regulated fluorescent reporter, fluorescence; fluorescence inhibition, % (concentration not given with the values); hit rate 0.1% among 300,000;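 active = 35 to 45% if threefold the growth effect, above 45% if 1.5-fold the growth effect; inactive = the rest, general growth blockers included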;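 also: wells of about 50 µL received 100 nL stock; 0% = vehicle wells and 100% = reference inhibitor wells; whole bacteria with a GFP reporter of the hypoxia response; strong numbers were not always called active; many hits fall short of the cut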
# Mtb hypoxia inh growth: further read-out of Mtb hypoxia inh, marked with its call; growth inhibition, %; measured here: M. tuberculosis growth (absorbance);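 0% = vehicle and 100% = reference antibiotic; read after six days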
# * hit, by the source's call; ? = inconclusive; / = no result given.
Compound | Sa ugtP lethal | Sa RN4220 lethal | BJeLR viability | Bead autofluor | PrP UTR inh | Mtb hypoxia inh | Mtb hypoxia inh growth
Cc1cc(C(=O)OCC(=O)NNC(=O)c2cccs2)ccc1[N+](=O)[O-] | 0 | 3.9 | -15 | ? | -14 | 3 | 6
CCCc1nc2c(s1)CCc1onc(-c3ccc(Br)cc3)c1-2 | 66 | -4.4 | -1 | 3839 | 8 | 1 | 6
CCN1CCCC1CNC(=O)Cn1cnc2ccc(S(=O)(=O)N3CCC(C)CC3)cc2c1=O (stereo unspecified) | 0 | -1.9 | 27 | / | -14 | / | /
O=C1CC(Sc2ccc(Cl)cc2)C(=O)N1Cc1ccncc1 (stereo unspecified) | 44 | -4.8 | 7 | 6090 | -3 | 8 | 5
COc1ccc(-n2c(C)c(C(C)=O)c3cc(O)ccc32)cc1 | -1 | 3.8 | 4 | 2942 | 32 | 3 | 12
CCOc1ccc2nc(N(CCN(C)C)C(=O)c3cc4ccccc4cc3OC)sc2c1 | -14 | -7.8 | -8 | / | -14 | -15 | -8
COc1ccc(C(=O)/C=C2/C(=O)Nc3ccccc32)cc1 | 99* | 97* | -1 | 3537 | / | 5 | 6
CC(OC(=O)c1nn(C)c(=O)c2ccccc12)C(=O)NC1CCCCC1C (stereo unspecified) | 4 | 4.9 | 6 | 5683 | -10 | 0 | 0
CCCn1nnnc1NCc1ccc(OC)cc1 | 4 | 3.5 | 2 | 3725 | -28 | 9 | 13
Cc1ccc(NC(=S)NC(NC(=O)c2ccco2)C(Cl)(Cl)Cl)cc1 (stereo unspecified) | -7 | -3.5 | -1 | 2296 | -21 | / | /
CCc1ccccc1NC(=O)CNC(=O)CCc1nc2sc3c(c2c(=O)[nH]1)CCCC3 | -6 | 1.9 | -7 | 6493 | -14 | -13 | 10
O=C1COc2ccc(C(=O)CSc3ccccc3C(=O)O)cc2N1 | 3 | 2.6 | -8 | 4298 | -12 | -6 | 5
COC(=O)C1=C(N)OC2=C(C(=O)CC(C)(C)C2)C1c1ccoc1 (stereo unspecified) | -1 | 0.7 | 3 | 4842 | -28 | 24 | 19
Cn1c(/C=C/c2ccccc2)nc2ccccc21 | -6 | 3.8 | 45 | 4364 | 33 | 6 | 2
C=CCN=C1S/C(=C\c2ccc(N(C)C)cc2)C(=O)N1CC=C | 13 | 5.5 | 2 | 4979 | -70 | 0 | 14
O=C(NN=Cc1ccco1)c1ccncc1 | -3 | 2.6 | / | / | / | 20 | 16
C#C[C@]1(O)CC[C@H]2[C@@H]3CCC4=CC(=O)CC[C@]4(C)[C@H]3CC[C@@]21C | / | / | 4 | 6082 | -5 | / | /
CCN(CC)C(=O)c1[nH]cnc1C(=O)NC(CC(C)C)C(=O)OC(C)(C)C (stereo unspecified) | 0 | 9.3 | / | / | / | 2 | 9
N#CC(C#N)=Cc1ccc(NC(=O)c2ccc(Br)cc2)cc1 | 5 | 2.2 | -3 | 3484 | -17 | 12 | 1
COc1ccc(N(CC(=O)NN=Cc2ccc(N(C)C)cc2)S(=O)(=O)c2ccccc2)cc1 | 17 | 0.0 | / | / | / | 0 | 9
COc1ccc(/C=C/C(=O)NC(=S)NNC(=O)c2ccco2)cc1OC | 2 | 10 | 6 | 3490 | 0 | 5 | -4
CO/N=C\CC(=O)Nc1ccc(Cl)cc1Cl | / | / | 12 | 4453 | -31 | / | /
C(=N\c1nccs1)/c1c[nH]c2ccccc12 | / | / | 2 | 3417 | -10 | / | /
Cc1ccccc1CSCCNC(=O)CSCc1ccc([N+](=O)[O-])cc1 | 0 | 0.0 | 0 | 21363* | -11 | 5 | 0
Nc1c(C(=O)c2ccccc2)oc2ccc([N+](=O)[O-])cc12 | 15 | 21 | 6 | 3860 | -72 | -4 | -3
O=C(COC(=O)c1c(Cl)cccc1Cl)Nc1cccc(S(=O)(=O)NC2=NCCCCC2)c1 | -3 | -3.0 | / | 2783 | -1 | -11 | -1
c1ccc(-c2ccccc2-n2cnnn2)cc1 | -8 | 6.4 | -2 | 15337 | -15 | 1 | 1
O=C(N/N=C\C1C(=O)NC(=S)N(c2ccccc2)C1=O)c1ccc(O)cc1 (stereo unspecified) | / | / | -7 | 4499 | -34 | / | /
O=[N+]([O-])c1cccc(N/N=C/c2cccc(O)c2O)c1 | / | / | -24 | 4119 | -32 | / | /
O=C(O)c1ccccc1N/N=C/c1c(Sc2nnnn2-c2ccccc2)nc2ccccn2c1=O | / | / | -2 | 6435 | -11 | / | /
N#C/C=C1\Sc2ccccc2C(=O)N1CC(=O)N1CCN(S(=O)(=O)c2ccccc2)CC1 | -4 | 4.1 | 7 | 8491 | -50 | -8 | 2
O=C(Cn1c2[n+](c3ccccc31)CC(O)CS2)c1ccccc1 (stereo unspecified) | 2 | 5.4 | 8 | 4463 | -1 | -4 | -6
CCN(Cc1ccccc1)C(=O)c1cccc(S(=O)(=O)N2CCN(c3ccccc3)CC2)c1 | 13 | 1.2 | 7 | 4815 | -41 | 5 | -11
Cc1ccc(S(=O)(=O)NCc2ccccc2)cc1 | 3 | 4.4 | 0 | ? | -12 | 5 | 5
CC(C(=O)NC(N)=O)N1C(=O)NC(c2ccccc2)(c2ccccc2)C1=O (stereo unspecified) | 3 | 4.1 | -7 | 5561 | 1 | -3 | -2
O=C(C(Cl)Cl)N1CCN(c2ccccn2)CC1 | 5 | 5.3 | -16 | 2343 | -16 | 5 | -6
COc1ccccc1C(=O)NNC1=NS(=O)(=O)c2ccccc21 | 3 | -0.8 | 19 | 3084 | -4 | 7 | 1
COC(=O)c1cc(-c2ccc(OC)cc2)n[nH]1 | 5 | 9.8 | -1 | 4519 | -45 | 5 | 6
O=C1N(c2ccc(Cl)cc2)C(c2ccccc2)N2CCCN12 (stereo unspecified) | 3 | -3.1 | -12 | 2312 | -7 | -5 | -6
COc1ccc(CC(=O)OCC(=O)Nc2ccc3c(c2)OCO3)cc1OC | -3 | -0.8 | 6 | 4952 | -20 | 9 | -1
CCCCOC(=O)Nc1cc(C(=O)OC)ccc1C(=O)OC | 30 | 9.7 | 0 | 10596 | -5 | -1 | 1
Cc1ccc(-c2nnn(CC(=O)N3CCN(c4nc5ccccc5s4)CC3)n2)cc1 | -1 | 1.6 | 3 | 4638 | -1 | 4 | 1
NC(=O)C1(C(N)=O)OC1c1ccccc1 (stereo unspecified) | 8 | 2.6 | -12 | 4536 | -34 | 1 | -2
O=C(O)c1ccc(OCc2ccc(C(=O)O)o2)cc1 | 3 | 4.2 | -2 | 3783 | -29 | 7 | 2
COc1cccc(N2CC(C(=O)Nc3c(C)cccc3C)CC2=O)c1 (stereo unspecified) | 0 | 11 | 17 | / | -4 | -5 | 8
COc1ccc(-c2cccc(CCC(=O)N3CCN(c4cc(C)ccc4C)CC3)c2)cc1 | 13 | -2.7 | / | 4026 | -17 | -11 | 3
Cn1c(=O)c(C(=O)NCCc2ccccc2)c(O)c2ccccc21 | 13 | 9.7 | -15 | 3846 | -5 | 4 | 13
S=P(N1CC1)(N1CC1)N1CC1 | -2 | 4.5 | / | 5894 | -12 | 3 | 2
COc1cccc(OCC(=O)NC2CCS(=O)(=O)C2)c1 (stereo unspecified) | -3 | -0.1 | / | 5022 | -2 | 0 | 6
CCC(C)[C@H](NC(=O)NCc1ccc(F)cc1)C(=O)O (stereo partly specified) | 6 | 3.5 | -5 | 4262 | 5 | 11 | 12

# Next section.
# Results follow in this order: Sa ugtP lethal, Sa RN4220 lethal, BJeLR viability, Bead autofluor, PrP UTR inh, Mtb hypoxia inh, Mtb hypoxia inh growth
O=[N+]([O-])c1ccc(N/N=C/c2cn(-c3ccccc3)nc2-c2ccccc2)cc1
    /, /, -13, 3852, -23, /, /
Cc1cccc(NN=C2COC(C)(C)CC2=O)c1
    0, 8.4, /, /, /, -3, 1
COC(=O)c1oc2ccccc2c1NC(=O)c1ccccc1O
    -12, 17, 3, 3478, -8, 10, 5
O=C1C2C(C(=O)N1Cc1ccco1)C1C=CC2C12CC2 (stereo unspecified)
    -7, -3.5, 5, 10043, -21, 4, 17
Cc1ccccc1C1C(C#N)=C2N=C(N)c3c(sc4c3CCCCC4)N2C2=C1C(=O)CCC2 (stereo unspecified)
    -24, -3.0, -1, 6059, -3, 8, 5
Cc1cccc(NCc2ccccc2O)c1C
    -3, 2.5, 10, 3029, -24, 4, -2
CC(=O)Nc1ccc(/C=N/N2CCCCC2)cc1
    /, /, 2, 3808, -45, /, /
CC1CCCN(CC(O)COc2ccc(Cl)cc2)C1 (stereo unspecified)
    13, 2.3, -5, 11115, -37, 7, 5
O=C(NC1CCCC1)c1ccc(COc2ccccc2Br)o1
    11, 4.0, -2, 3790, -26, 2, 1
COc1ccc(CN2CCN(C(=O)Cc3ccccc3)CC2)cc1Br
    2, 5.3, 7, 3598, -16, -1, 2
O=C(Nc1ccc2c(c1)OCO2)c1ccc2c(c1)OCO2
    2, 6.3, 2, 2457, -35, 14, 0
CC(C)CCNC(=O)[C@H](Cc1ccccc1)N1Cc2ccccc2C1=O
    4, 0.2, 6, 3659, -13, -8, 3
O=C(Nc1nccs1)C1CC=CCC1C(=O)OCC(F)(F)C(F)F (stereo unspecified)
    5, 3.2, /, 6513, -23, 5, 1
COc1cc(CNCCN2CCOCC2)ccc1OCc1c(Cl)cccc1Cl
    0, -2.0, -1, /, /, 0, 1
CC(=O)Nc1cccc(C(=O)OCc2csc(CC(=O)Nc3ccccc3C)n2)c1
    -2, -0.4, /, 2936, -12, 1, -3
C=CCNS(=O)(=O)c1ccc(OC)c(C)c1
    1, -0.1, 4, 8118, -25, 3, 14
CC(C)c1nc2cc(Cl)ccc2n(Cc2ccccc2)c1=O
    10, -10, -3, 3495, -20, 15, 8
CCc1nc2ccccc2n1CC(=O)Nc1cc(C)on1
    14, 5.2, 7, 3221, -11, 3, 1
Cc1ccc(CCNC(=O)c2ccc(NC3=NC4CS(=O)(=O)CC4S3)cc2)cc1 (stereo unspecified)
    -1, 0.5, 7, 5310, -14, 8, 3
N#CC(C#N)=C1C=CC=CN1/C(=C\c1ccccc1Cl)C(=O)c1ccccc1
    56, 17, /, 3037, -18, 7, 8
O=C(CNC(=O)c1cccc(F)c1)N/N=C/c1ccc([N+](=O)[O-])s1
    /, /, -3, 1979, -19, /, /
COc1ccc2cc(/C=N/NC(=O)c3ccc(CN(c4cccc(Cl)c4Cl)S(C)(=O)=O)cc3)c(Cl)nc2c1
    /, /, -12, 10722, 0, /, /
O=S(=O)(c1ccccc1)N(Cc1cccc(F)c1)c1ccccc1
    18, 0.0, 22, 3821, 4, 2, 13
COc1ccc(C(=O)N2CCCC(Nc3ccc(C(C)C)cc3)C2)c(OC)n1 (stereo unspecified)
    7, 2.4, -1, 6192, -33, 10, 12
Cc1noc(C)c1COC(=O)Cc1ccc(Cl)c(Cl)c1
    3, 5.4, -7, 4103, 7, -3, 3
Cc1c(C(N)=O)sc2ncn(CC(=O)N(C)C3CCCCC3)c(=O)c12
    7, -3.8, -3, 5341, 6, 1, 3
O=C(CC(c1ccccc1)c1ccco1)N1CCCCC1 (stereo unspecified)
    2, 1.7, 21, 3251, 2, 13, 8
COc1cc(Cl)c(C)cc1Nc1ncccn1
    9, 5.9, 1, 5794, -4, -1, 9

# Complete entries, quoted from the list. Values in the order: Sa ugtP lethal, Sa RN4220 lethal, BJeLR viability, Bead autofluor, PrP UTR inh, Mtb hypoxia inh, Mtb hypoxia inh growth
# COc1ccc(C(=O)N2CCCC(Nc3ccc(C(C)C)cc3)C2)c(OC)n1 (stereo unspecified) is entered as 7, 2.4, -1, 6192, -33, 10, 12
# O=C(CNC(=O)c1cccc(F)c1)N/N=C/c1ccc([N+](=O)[O-])s1 is entered as /, /, -3, 1979, -19, /, /
# COc1ccc2cc(/C=N/NC(=O)c3ccc(CN(c4cccc(Cl)c4Cl)S(C)(=O)=O)cc3)c(Cl)nc2c1 is entered as /, /, -12, 10722, 0, /, /
# Cc1noc(C)c1COC(=O)Cc1ccc(Cl)c(Cl)c1 is entered as 3, 5.4, -7, 4103, 7, -3, 3
# Cc1c(C(N)=O)sc2ncn(CC(=O)N(C)C3CCCCC3)c(=O)c12 is entered as 7, -3.8, -3, 5341, 6, 1, 3

# Outcome played no part in choosing rows; about 4% have a hit in one of these screens.
